From PubChem BioAssay
NPR1 antag: antagonists of human natriuretic peptide receptor Npr1. HEK293 hNpr1 GloSensor cGMP, ANP-stimulated luminescence. Potency, µM (titrated, usually from 46.3 µM), inactives show at the top dose activity change, negative = inhibition, hits mostly inhibitors. hit rate 1.6% among 76,000. AID 1347048; active = well fitted inhibition curve with a large enough effect; inconclusive = small, poorly fitted or top-dose-only effect; inactive = no such curve, though single readings can be large or run the other way;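 further: nearly all actives have a fitted effect of over 60% in size; nearly all hits also lower the signal before the agonist is added; a reference antagonist and vehicle were the controls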
Target sequence (P16066 whole entry, looked up): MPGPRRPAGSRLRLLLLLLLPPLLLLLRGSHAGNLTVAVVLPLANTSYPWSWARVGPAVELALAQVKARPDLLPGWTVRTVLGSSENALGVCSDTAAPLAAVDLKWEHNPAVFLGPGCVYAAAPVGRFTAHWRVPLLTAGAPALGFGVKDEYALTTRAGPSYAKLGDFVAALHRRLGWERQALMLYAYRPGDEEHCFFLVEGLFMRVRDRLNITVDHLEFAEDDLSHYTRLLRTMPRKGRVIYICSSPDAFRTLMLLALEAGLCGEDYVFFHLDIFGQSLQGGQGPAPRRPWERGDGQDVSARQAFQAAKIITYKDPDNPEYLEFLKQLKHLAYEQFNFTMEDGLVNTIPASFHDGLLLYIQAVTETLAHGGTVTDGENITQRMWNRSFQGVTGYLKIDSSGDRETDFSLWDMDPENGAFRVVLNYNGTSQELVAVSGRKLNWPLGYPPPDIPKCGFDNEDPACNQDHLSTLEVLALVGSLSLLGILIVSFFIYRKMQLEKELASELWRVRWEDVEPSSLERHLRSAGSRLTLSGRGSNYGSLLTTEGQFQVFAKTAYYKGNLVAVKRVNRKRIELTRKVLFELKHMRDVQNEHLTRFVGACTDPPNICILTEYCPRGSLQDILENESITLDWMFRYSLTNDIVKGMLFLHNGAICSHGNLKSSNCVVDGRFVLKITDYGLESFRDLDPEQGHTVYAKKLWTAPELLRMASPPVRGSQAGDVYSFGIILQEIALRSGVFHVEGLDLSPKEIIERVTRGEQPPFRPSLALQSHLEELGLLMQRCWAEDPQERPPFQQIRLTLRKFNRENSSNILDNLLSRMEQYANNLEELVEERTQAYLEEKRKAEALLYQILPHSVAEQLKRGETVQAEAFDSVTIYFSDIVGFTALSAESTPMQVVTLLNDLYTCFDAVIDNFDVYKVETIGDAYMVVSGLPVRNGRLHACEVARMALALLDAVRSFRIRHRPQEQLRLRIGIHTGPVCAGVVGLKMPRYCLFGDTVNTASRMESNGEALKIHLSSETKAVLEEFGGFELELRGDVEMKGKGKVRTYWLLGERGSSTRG
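Compound pre-incubated 30 min at room temperature on GloSensor-loaded HEK293 cells stably carrying hNpr1 and the pGS-40F cGMP biosensor. Stimulation uses hNppA at 0.1 nM final; luminescence is taken at baseline and 20 min post-agonist.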
Active calls of the source: *; ? = inconclusive; [ ] = dose if it differs, or a comment. On the % scale 0 is the no-effect control and ±100 the full control effect; potency means the concentration at half of the fitted maximal effect. These rows are one share of the data; rates above refer to the full screens.

Start of the listing, in advance:
NPR1 antag,SMILES
-0.8%,O=C(c1ccc2cc[nH]c2c1)N1CCC(N2C(=O)C3(CCCCC3)C2c2ccncc2)CC1 (configuration not stated)
1.4%,CCn1nc(C)c(CCC(=O)NC2CCCc3c2[nH]c2ccccc32)c1C (configuration not stated)

All compounds of this part, from the first entry:
NPR1 antag,SMILES
-0.8%,O=C(c1ccc2cc[nH]c2c1)N1CCC(N2C(=O)C3(CCCCC3)C2c2ccncc2)CC1 (configuration not stated)
1.4%,CCn1nc(C)c(CCC(=O)NC2CCCc3c2[nH]c2ccccc32)c1C (configuration not stated)
-0.7%,CN(C)C(=O)N1CCCn2nc(CNC(=O)c3ccc4[nH]ccc4c3)cc2C1
1.8%,CN1[C@@H](CCC(=O)NCc2cccs2)CNC(=O)[C@@H]2[C@H]1CCN2Cc1cccc(OC(F)(F)F)c1
5.1%,COc1ccccc1CC(=O)N1CCC(Cc2nc(-c3cnccn3)no2)CC1
-9.5%[70.6 µM],COc1ccc(-c2nnc3ccc(N4CCN(c5ccccn5)CC4)nn23)nc1
-2.7%,O=C(NCCCN1CCOCC1)C1CCN(C(=O)N2CC3CC(C2)[C@H]2CCCC(=O)N2C3)CC1 (some centres not stated)
-5.2%[70.6 µM],Cn1c([C@H]2CCN(Cc3cccc(C#N)c3)C2)nc2ccccc21
-1.6%,CC(C)CCN1CCC(N(C(=O)NCCc2ccccc2)C2CCOCC2)CC1
4.3%,CN(CCn1ccnc1)C(C(=O)O)c1cnn(Cc2ccccc2)c1 (configuration not stated)
-2.1%,COc1ccc(OC)c(CNC(=O)C2(c3ccc(NC(C)=O)cc3)CCCCC2)c1
2.3%,CN(CC(=O)O)c1ncc(CN2CCCC(c3cccc(C(=O)O)c3)C2)cn1 (configuration not stated)
-22.0%,O=C(NCc1cccnc1)c1cc(-c2ccccc2F)cc2c1OCCN2Cc1cccnc1
-0.6%[70.6 µM],CN(C)c1ccc(C(=O)N2CC[C@@H](CC(=O)O)[C@@H](CCN3CCCCC3)C2)cc1
4.8%,O=C([C@@H]1CCCN1C1CCNCC1)N1CCN(Cc2cccnc2)CC1
-2.6%,Cc1cc2nc3n(c(=O)c2n1CC(=O)Nc1ccccc1F)CCCCC3
9.8%,Cc1cc(C(=O)N2CCCn3ccnc3C2c2cnn(C)c2)c(C)o1 (configuration not stated)
1.7%[70.6 µM],O=C1[C@@H]2C[C@@H](CN2C(=O)Cc2ccccc2)Oc2ccccc2N1CC1CC1
7.4%[70.6 µM],Cc1noc([C@@H](C)NCc2cccc(Cl)c2)c1C(=O)O
0.6%,COCCN1CCC(N2CCN(S(=O)(=O)c3ccc(F)cc3F)CC2)C1=O (configuration not stated)
-3.2%[70.6 µM],CN(CC1CC1)C1CCOc2ccccc21 (configuration not stated)
-15.9%,CCc1cccc(NC(=O)CN2C(=O)NC(c3ccc(C)cc3)C3=C2COC3=O)c1 (configuration not stated)
-1.3%,O=C(C1CCC1)N1CCC(c2noc(-c3ccncc3)n2)C1 (configuration not stated)
4.4%[70.6 µM],CN1C[C@H](NCc2nccn2C)CCC[C@@H](C(=O)NC2CC2)CC1=O
-15.6%,CC(=O)N1CCC(C2CCN(S(=O)(=O)c3ccc(C)c(Cl)c3)C2)CC1 (configuration not stated)
4.0%,O=C1CCN(C(=O)C2COc3ccccc3O2)CCCOCCN1 (configuration not stated)
-2.9%,CN1CCCN(S(=O)(=O)c2ccc(C(F)(F)F)cc2)c2ccccc21
-1.4%,CS(=O)(=O)N1CCC(CC(=O)N2CCOCC2)C1 (configuration not stated)
0.0%,COc1cccc(-c2nc(-c3nnn4c3COC(c3ccc(Cl)cc3)C4)no2)c1OC (configuration not stated)
1.6%,CCn1nc(C)c(CCNC(=O)c2cccc(C3CCNC3)c2)c1C (configuration not stated)
15.4%,CN(Cc1ccccc1C(F)(F)F)Cc1ccccc1C(F)(F)F
-10.9%,Cc1ccc(NC(=O)C2(Cc3ccccc3)CCCCC(=O)N2)cc1 (configuration not stated)
-18.3%[70.6 µM],Oc1cccc(-c2cc(-c3ccncc3)c3cncn3c2)c1
-0.2%,COc1ccc(CC(=O)N2CC(C(=O)NCCc3ccncc3)C3(CCOCC3)C2)cc1 (configuration not stated)
1.0%[70.6 µM],COCCNC(=O)[C@@H]1C[C@@H](c2ccc(F)cc2)N([S+](=O)([O-])c2ccccc2)C1
0.1%,CN(C)CCNC(=O)c1cc2c(n1C)CCN(Cc1ccc(F)cc1)C2
1.2%,O=C(NC1CCCCC1)O[C@@H]1CO[C@H]2[C@@H]1OC[C@@H]2n1nnnc1-c1ccc2c(c1)OCCO2
0.6%,Cc1ccc(CN2C(=O)OC(c3cccc(NC(=O)c4ccc(F)cc4)c3)C2C(=O)NC2CC2)cc1 (configuration not stated)
6.8%,O=C(C1CC=CC1)N1CCc2nn(Cc3ccccc3)c(=O)n2CC1
0.5%,CCOC(=O)C1(Cc2ccccc2F)CCCN(C(=O)c2ccc3c(c2)OCCO3)C1 (configuration not stated)

Single entries from the list.
NPR1 antag with COc1cccc(-c2nc(-c3nnn4c3COC(c3ccc(Cl)cc3)C4)no2)c1OC (configuration not stated) → 0.0%
NPR1 antag with CN(C)CCNC(=O)c1cc2c(n1C)CCN(Cc1ccc(F)cc1)C2 → 0.1%
NPR1 antag with O=C1CCN(C(=O)C2COc3ccccc3O2)CCCOCCN1 (configuration not stated) → 4.0%

Additional structures.
NPR1 antag,SMILES
6.2%[70.6 µM],COCc1cccc(-c2n[nH]c3c2CC(=O)N(CC2CCOCC2)C3)c1
?,CCc1ccc(NC(=O)C2CCN(C(=O)c3ncn4c3COC(c3ccc(OC)cc3)C4)CC2)cc1 (configuration not stated)
?,C=CCOC(=O)C1=C(C)N=C2SC=C(CC(=O)NC3CC3)N2C1c1cc(C)ccc1C (configuration not stated)
5.5%[70.6 µM],COCCCNc1ncnc2c1CN(c1cccnc1)C(=O)CN2C
-4.4%[70.6 µM],O=C1COc2ccc(-c3cncnc3)nc2CN1CCOc1ccccc1
5.8%,CCc1ncc(-c2c(-c3ccccc3)ncn2CCCOc2cccnc2)cn1
1.3%,Cc1noc(-c2cccc(OC3CN(C(=O)NCCc4ccccc4)C3)c2)n1
-1.4%,C#CCNC(=O)C[C@@H]1c2nc(NC(=O)c3ccc(OC)cc3)sc2C[C@@H]2[C@](C)(CO)[C@H](O)CC[C@]21C
-15.1%,O=C(NCc1ccccc1F)c1ccc2c(c1)CN(Cc1ccc3c(c1)CCO3)CCO2
7.6%,O=C(C1CC2(CCNCC2)CN1)N(CCc1ccccc1)Cc1cccnc1 (configuration not stated)
-1.1%,CCOC(=O)CCNC(=O)N1[C@@H]2CC[C@H]1CC(NC(=O)c1ccc(F)cc1)C2 (some centres not stated)
?,Cc1csc(Nc2ccc3c(n2)CN(Cc2ccc(F)cc2)C(=O)CO3)n1
3.2%[70.6 µM],Cc1cccc(OCC2(CNCc3cnn(C)c3)C[C@@H](O)[C@@H](O)C2)n1 (some centres not stated)
-17.9%,Cc1cnc(CCNC(=O)C2CCCC2)n1C1CC1
?,COCCOC1CCOC2(CCN(C(=O)c3ccc(OC)nc3)CC2)C1 (configuration not stated)
-8.1%,CC(C)CN1C(=O)c2cccn2CC1C(=O)NCc1ccc(OC(C)C)cc1 (configuration not stated)
4.5%,COC[C@@H]1CN(C(=O)c2ncccc2C)C[C@H]1C(N)=O
-29.8%,Cc1ccc([C@@H]2CN(C(=O)c3c(-c4ccccc4)noc3C)C[C@H]2N(C)C)cc1
-10.3%,COc1ccc(-c2nc3c(c(=O)[nH]2)CCN(C(=O)COc2ccc(F)c(F)c2)C3)cc1
1.3%,CCOc1ccc(-c2cc(C(=O)N3CCCC3c3nncn3C(C)C)[nH]n2)cc1 (configuration not stated)
-0.6%,CCCOc1ccc(CN2CCc3nc(N(C)C)[nH]c(=O)c3CC2)cc1OC
7.2%,Cc1ncc2n1C(=O)N(C1CCN([S+](=O)([O-])c3cccc(C(F)(F)F)c3)CC1)C2
0.3%,Cc1nc2c(c(-c3ccc(Cl)cc3)n1)CCN(C(=O)N(C)C)CC2
6.3%[70.6 µM],Cc1nn2c(c1-c1ccnn1C(C)C)N(C(=O)c1ccc(F)cc1)CCC2
1.5%,COCC(=O)NCC(=O)N1CCCCCNC(=O)CC1c1ccccc1 (configuration not stated)
-5.7%,CN(Cc1cn(-c2ccccc2)nn1)Cc1nnc(-c2ccccc2)o1
3.5%,CCOc1ccc(C(=O)N2CC(C(=O)NC3CCCCC3)C3(CCOCC3)C2)cc1 (configuration not stated)
0.6%[70.6 µM],N#Cc1cccc(CN[C@H]2[C@H](O)[C@H](O)C[C@@H]2c2ccc(C(F)(F)F)nc2)c1
2.5%,COc1ccc(S(=O)(=O)N2CC[C@H](CNC(C)=O)[C@H](N(C)C)C2)cc1
-14.0%,Cc1noc(C2CCCCCN2C(=O)Nc2cccc(F)c2)n1 (configuration not stated)
?,CCCC1C=CCN1C(=O)c1coc(CN2CCN(c3ccccc3F)CC2)n1 (configuration not stated)
5.8%,CNC(=O)c1ccc(CC2CCN(C(C)=O)CC2)cc1
0.0%,COc1ccc(C(=O)N2CCC3(CC2)NC(=O)N(Cc2ccccc2)C3=O)c(OC)c1
-6.8%,Cc1ccc(N2CC(c3noc(-c4ccsc4)n3)CC2=O)cc1 (configuration not stated)
-2.4%,CN1C[C@@H](NC(=O)c2ccc(F)cc2)C[C@H]1c1nc(-c2ccc(OC(F)(F)F)cc2)no1
-2.9%,COC(=O)c1cccc(NC(=O)c2c(OC)cc(=O)n3c2CCCC3)c1
-25.9%,O=C(c1cccc(F)c1)N1CCN(C(=O)c2nnn3c2COC(c2ccccc2)C3)CC1 (configuration not stated)
-1.4%,CS(=O)(=O)N1CCN(S(=O)(=O)c2ccccc2)C[C@H]1C(=O)N[C@@H](CC1CCCCC1)C(N)=O
-3.5%[70.6 µM],O=C(c1nc(-c2ccc(F)cc2)c2cnccn12)N1CCCC1
?,COc1cccc(-c2cc3c(=O)n(CCNC(=O)c4cccc(Cl)c4)ccn3n2)c1
2.0%,Cc1ccc(S(=O)(=O)N2C[C@@H]3OCC(=O)N(Cc4ccc(OC(F)(F)F)cc4)[C@@H]3C2)cc1
4.9%,CCOc1cccc(CNC(=O)Cn2c(C)ccc(NC(=O)NC)c2=O)c1
-9.4%,CC(C)Oc1ccc(CNC(=O)C2Cn3cccc3C(=O)N2Cc2ccccc2)cc1 (configuration not stated)
-19.0%,CC1CCCN(c2ncnc3c2CN(c2ccc(Cl)cc2)C(=O)CN3C)C1 (configuration not stated)
6.6%,CCOC(=O)C1(Cc2ccccc2C(F)(F)F)CCN(C(=O)c2ccc[n+]([O-])c2)CC1
0.3%[70.6 µM],CCN1C(=O)COC[C@@H]1[C@H](O)c1ccc(NC(=O)CC(C)(C)C)cc1
1.6%,Cc1cc(C(=O)N2CCC(OCC3CC3)C2)n(C)n1 (configuration not stated)
2.3%[70.6 µM],CCNC(=O)N1CC[C@H]2CC(=O)N(CCN3CCNC3=O)CC[C@H]2C1
0.4%,CN1CCC(N2CCN(S(=O)(=O)c3cccc(Cl)c3)CC2)C1=O (configuration not stated)
-29.0%,O=C(Nc1ccc2ncnc(N3CCCCC3)c2c1)c1ccccc1
4.2%[70.6 µM],COc1ccc(Cl)cc1-c1ccc2c(c1)C(=O)N1CC[C@H](N)[C@H]1C(=O)N2
3.6%,CCN1C(=O)C2(CCN(S(=O)(=O)c3ccc(F)c(C)c3)CC2)c2ccccc21
0.3%,COc1cccc(N2CCN(C(=O)c3cc(NC(=O)C(C)C)cc4nc(C)ccc34)CC2)c1
-16.1%,COc1cccc(CNC(=O)CC2CCOCC2)c1OC
2.8%,Cc1noc([C@@H]2CN(C(=O)COc3ccccc3)C[C@H]2CO)n1
-16.4%,Cc1ccc(CNC(=O)c2c(C)sc3ccn(CC(C)C)c(=O)c23)o1
16.1%,CCc1c(C)nn(CC(=O)N2CC(C)(C)[C@@](C)(O)C2)c1C
-1.3%,CNC(=O)[C@@H]1C[C@H](Oc2ccccc2)CN1C(=O)C1(C)CCCCC1
-2.4%[70.6 µM],CS(=O)(=O)N1CCC2(C1)OC(=O)Nc1ccccc12 (configuration not stated)
6.5%,CC(C)CC(=O)NC1CCN(c2cnn(C)c(=O)c2)CC1

The list goes on; it opens with the 3 that closed the last part.
NPR1 antag,SMILES
-1.3%,CNC(=O)[C@@H]1C[C@H](Oc2ccccc2)CN1C(=O)C1(C)CCCCC1
-2.4%[70.6 µM],CS(=O)(=O)N1CCC2(C1)OC(=O)Nc1ccccc12 (configuration not stated)
6.5%,CC(C)CC(=O)NC1CCN(c2cnn(C)c(=O)c2)CC1
-8.4%[70.6 µM],C#CCNC(=O)[C@@H]1Cc2cn(CC=C)c3cccc(c23)[C@H](CC(C)C)N1
1.7%,Cc1cn(CC(=O)N2CCc3nc(-c4cn[nH]c4)[nH]c3C2)c(=O)[nH]c1=O
-1.0%[70.6 µM],Cc1ccc(CN2CC[C@@H](CO)N(C)c3cccnc3C2)s1
-12.6%,COCCOc1ccc(C(=O)N[C@@H]2CN(C(=O)Nc3ccc(OC(F)(F)F)cc3)CCC[C@H]2O)cc1
?,O=C(NCC1CCN(c2cc(-c3ccc(Cl)cc3)[nH]n2)CC1)c1cc(C2CC2)[nH]n1
?,Cn1ccc2cc(-c3csc(CN4CC(C)(NC(=O)C5CC5)C4)n3)ccc21
-23.5%[70.6 µM],OC1(c2nc(Nc3ccc(Cl)c(C(F)(F)F)c3)n[nH]2)CCOCC1
7.4%,CN(C)c1ccc(CN2CCC3(CC2)COc2ccccc2C(=O)N3)cc1
4.2%[70.6 µM],CN1CCC(N2CCC(O)(c3csc(CN4CCc5ccccc5C4)n3)CC2)CC1

Random excerpt: 2 records from the list
NPR1 antag,SMILES
1.7%,Cc1cn(CC(=O)N2CCc3nc(-c4cn[nH]c4)[nH]c3C2)c(=O)[nH]c1=O
4.2%[70.6 µM],CN1CCC(N2CCC(O)(c3csc(CN4CCc5ccccc5C4)n3)CC2)CC1
